Bfl-1 A1 inh = caspase 3/7 activation in MEF A1-2A-BIM cells, primary screen, A1 inhibitor project, cell-based, luminescence, HTS. Caspase-Glo 3/7 luminescence, 3 h; percent of clofoctol response, vehicle zero. AID 2462, 2010. hit rate 0.066% among 330,000. caspase activation, % (concentration not given with the values);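 active = over half of replicate activation scores above 10%, or exactly half above 10 with the replicate mean above 10; inconclusive = replicate mean below 10 yet half the replicates above 10; inactive = over half of replicates below 10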;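 also: wells of about 30 µL received 50 nL stock; many hits fall short of the cut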
T cruzi repl = inhibitors of intracellular T. cruzi growth, primary screen, luminescence, NIH3T3 host cells. T. cruzi beta-gal in NIH3T3, 90 h. hit rate 1.4% among 300,000. inhibition, % (concentration not given with the values). AID 1885, 2009;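 active = mean inhibition across valid replicates above about 55%, limit read from the data; inconclusive = mean below that limit but half or more replicates reach it; inactive = mean below it, under half of replicates reach it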;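 also: signal also drops with host cell toxicity which is not excluded here; 0% = plate median of DMSO wells and 100% = zero luminescence signal; higher percent means less beta-gal luminescence so fewer parasites; stock transfer was 50 nL into about 50 µL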
MLL AF4-AF9 inh = inhibitors of AF4 peptide binding to AF9, primary screen, biochemical, AlphaScreen, biotin-AF4 peptide, FLAG-AF9, single point | Protein AF-9 (Homo sapiens), P42568 | inhibition, % at 10 µM | hit rate 0.47% among 350,000 | AID 651704, 2012;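 active = every replicate reaching a set inhibition limit, whatever the replicate mean, cut at about 25% in these data; inconclusive = mean inhibition reaches that limit but some replicates miss it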;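 also: 0% = plate neutral control median and 100% = total signal loss; the record names both 10 and 1 µM as test concentration; the first replicate is given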
RanGTP-Imp inh = inhibitors of RanGTP-importin-beta interaction, primary screen, biochemical, FRET, CFP-Ran, YFP-importin-beta, homogeneous; Ran GTPase (GTP-bound) - importin-beta complex; cell-free CFP-Ran/YFP-importin-beta FRET ratio; inhibition, % (test concentration not listed); hit rate 1.1% among 300,000;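 active = most replicates above 15%; inconclusive = exactly half above 15%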;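 also: 0% = DMSO wells and 100% = Ran loaded with GDP instead of GTP; wells of about 40 µL received 100 nL stock; the first replicate is given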
Vif A3G = inhibitors of Vif binding to APOBEC3G peptide, primary screen, biochemical, TR-FRET, GST-Vif 1-94, biotin-A3G peptide, dose response retest (AID 1117319). Virion infectivity factor (Human immunodeficiency virus type 1 group M subtype B (isolate …. TR-FRET GST-Vif / biotin-A3G peptide binding; higher % means a stronger effect; test concentration not given here; strong numbers were not always called active. one-dose inhibition, %; IC50 in µM for titrated hits. hit rate 0.57% among 260,000;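 active = above the screen mean plus three standard deviations and confirmed in dose response; inconclusive = results disagree or hit not tested in dose response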;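 also: Vif residues 1-94 fused to GST binding biotinylated APOBEC3G peptide 110-148; 0% = full assay without inhibitor and 100% = GST in place of GST-Vif; retest series ran down from 100 µM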
Calb FLC = C. albicans growth inhibition with fluconazole, primary screen, CaCi-2 strain, Alamar Blue fluorescence. C. albicans CaCi-2 (fluconazole-resistant clinical isolate) + fluconazole, 48 h. growth inhibition, % (test concentration not listed). hit rate 0.57% among 300,000. AID 1979, 2009;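 active = most replicates above 75%; inconclusive = exactly half above 75%; inactive = most below 75%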;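 also: all wells also contain fluconazole at 8 µg/ml as a sub-toxic cotreatment; 0% = median of DMSO wells and 100% = median of geldanamycin control wells; wells of about 8 µL received 7.5 nL stock; the first replicate is given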
Beta apoptosis = inhibitors of cytokine-induced beta cell apoptosis, primary screen, luminescence; INS-1E cytokine-induced death, ATP luminescence, 48 h; percent of positive-control rescue, neutral wells zero; protection from apoptosis, % (test concentration not listed); hit rate 0.8% among 300,000; AID 435005, 2010;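 active = all replicates at 75% or more, or half of them and the mean; inconclusive = half reach 75% but not the mean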;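 also: 0% = cytokine-treated negative control wells and 100% = positive control rescue; higher means more ATP so stronger rescue from cytokine killing; wells of about 40 µL received 100 nL stock; the first replicate is given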
LANA-H2B inh = blockers of LANA interaction with H2A/H2B – biochemical, FP readout, HTS, primary screen. cell-free LANA-H2A/H2B peptide, fluorescence polarization. inhibition, % (no concentration beside the values). hit rate 0.6% among 320,000; in the data active = inhibition mostly above about 10%, no sharp cut-off; inactive = mostly below about 6.7%;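 also: stock transfer was 7.5 nL into about 10 µL; 0% = median of vehicle wells and 100% = median of positive control wells; one replicate is shown; the record names a cut of 25% in any replicate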
Target sequence (Q9QR71 whole entry, looked up): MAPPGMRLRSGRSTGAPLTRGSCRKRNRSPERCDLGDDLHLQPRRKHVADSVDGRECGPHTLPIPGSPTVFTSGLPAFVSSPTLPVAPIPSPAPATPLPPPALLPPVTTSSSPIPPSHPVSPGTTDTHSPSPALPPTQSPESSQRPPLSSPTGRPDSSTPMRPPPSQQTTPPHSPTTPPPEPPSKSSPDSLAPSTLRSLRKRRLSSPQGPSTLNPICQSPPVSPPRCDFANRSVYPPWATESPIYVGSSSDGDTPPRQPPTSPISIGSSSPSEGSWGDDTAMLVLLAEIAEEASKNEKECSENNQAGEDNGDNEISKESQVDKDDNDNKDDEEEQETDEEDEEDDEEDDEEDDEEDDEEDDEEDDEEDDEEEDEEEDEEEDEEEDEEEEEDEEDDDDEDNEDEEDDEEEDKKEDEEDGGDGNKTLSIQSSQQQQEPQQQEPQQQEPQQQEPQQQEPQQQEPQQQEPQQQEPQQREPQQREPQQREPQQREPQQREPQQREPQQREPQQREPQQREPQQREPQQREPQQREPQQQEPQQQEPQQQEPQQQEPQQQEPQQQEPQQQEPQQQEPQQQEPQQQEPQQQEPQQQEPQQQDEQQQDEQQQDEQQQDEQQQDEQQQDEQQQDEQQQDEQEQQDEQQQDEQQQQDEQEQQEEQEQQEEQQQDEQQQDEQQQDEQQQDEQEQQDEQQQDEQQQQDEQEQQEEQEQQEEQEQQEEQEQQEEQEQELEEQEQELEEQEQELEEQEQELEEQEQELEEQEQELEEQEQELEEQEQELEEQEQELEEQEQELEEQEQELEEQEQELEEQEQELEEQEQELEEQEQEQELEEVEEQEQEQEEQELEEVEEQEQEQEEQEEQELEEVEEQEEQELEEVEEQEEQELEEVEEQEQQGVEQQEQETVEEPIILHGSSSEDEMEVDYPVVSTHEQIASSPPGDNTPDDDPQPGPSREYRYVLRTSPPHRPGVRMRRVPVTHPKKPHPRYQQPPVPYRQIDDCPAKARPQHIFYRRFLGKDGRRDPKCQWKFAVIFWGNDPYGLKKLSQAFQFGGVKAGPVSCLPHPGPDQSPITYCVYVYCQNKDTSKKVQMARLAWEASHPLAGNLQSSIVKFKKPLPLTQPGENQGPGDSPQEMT
Active calls of the source: *; ? = inconclusive; nt = not tested or not shown; & = joins results of further samples.

Molecule	Bfl-1 A1 inh	T cruzi repl	MLL AF4-AF9 inh	RanGTP-Imp inh	Vif A3G	Calb FLC	Beta apoptosis	LANA-H2B inh
O=C(O)c1cccc(N2C(=O)c3ccc(Oc4ccc(Cl)cc4)cc3C2=O)c1	0.0	9	-3.7	-6.7	-7%	-5	1	-6.1
COc1cc(OC)c(NC(=O)CCNS(=O)(=O)c2ccc3c(c2)oc(=O)n3C)cc1Cl	0.0	-14	-0.2	4.1	-3%	25	-7	3.8
CC(=O)Nc1ccc(NC(=O)COC(=O)c2c(C)nn(-c3ccccc3)c2C)cc1	0.2	6	-1.9	1.7	-6%	51	2	1.9
Cc1ccc(NC(=O)CCC(=O)c2ccc(Br)cc2)cc1	0.8	-9	-14	1.3	-3%	6	2	-0.9
Cc1ccccc1N1C(=O)c2ccccc2C1Nc1cccnc1 (stereo not given)	-0.2	12	-2.6	1.9	-6%	-5	1	0.8
CC(C)Cn1nc(NC(=O)C2CCCO2)c2cc3ccccc3nc21 (stereo not given)	0.3	-36	nt	27*	-3%	1	0	0.4
Cc1cc(/C=C2/NC(=O)NC2=O)c(C)n1-c1cccnc1	-0.4	-3	-2.2	2.8	nt	-8	-5	1.5
COc1ccc(/C(C#N)=C/c2c(-c3ccc(Cl)cc3)nc3c(C)cccn23)cc1	1.3	28	nt	10	-2%	-4	21	-0.8
O=S(=O)(NCc1csc(-c2cccnc2)n1)c1ccc(F)cc1	-0.5	6	1.6	0.4	3%	-3	-4	5.7
Cc1ccccc1OC(C)C(=O)Nc1cccnc1 (stereo not given)	1.3	-10	-0.8	1.7	nt	-2	6	1.3
CO/N=C/c1cn(-c2ccc(Cl)cc2)nn1	-3.3	3	-1.9	-1.9	7%	5	-4	3.9
CNC(=O)c1[nH]cnc1C(=O)NCC(=O)OCc1ccccc1	0.9	3	2.7	-0.8	nt	-4	0	0.9
CC(C)OC(=O)CC12CN(C)CC(CC(=O)OC(C)C)(CN(C)C1)C2=O	?	-17	nt	2.7	6%	-8	-7	1.2
CCOC(=O)c1csc(-c2sccc2Br)n1	-12	-15	-2.8	2.8	-6%	-2	0	-3.1
COc1ccc(C(=O)NCC(=O)N/N=C/c2cccc(OC(=O)c3ccco3)c2)cc1OC	0.2	-9	-0.7	0.5	-4%	6	-3	0.3
O=C(/C=C/c1ccco1)N/C(=C\c1ccco1)C(=O)NCCc1nc2ccccc2[nH]1	-0.3	4	nt	1.9	?	-10	0	0.2
COc1cc(C=O)c(Br)cc1OCC(=O)NCc1ccccc1	1.4	-11	-1.8	1.9	-14%	-3	6	-0.9
Cc1ccccc1NC(=O)CN(C)S(=O)(=O)c1cccs1	0.4	-5	1.7	5.0	nt	-1	0	1.8
COc1cc(/C=N/N=C2/C(=O)Nc3ccccc32)ccc1O	-3.8	-19	nt	-2.6	-1%	11	3	3.5
CC1CC(C)CN(C(=O)c2ccc(Br)c(S(=O)(=O)N3CCOCC3)c2)C1 (stereo not given)	1.5	nt	1.2	nt	0%	nt	-5	3.2
CN(C)c1ccc(C=C2C(=O)OC(C)(C(C)(C)C)OC2=O)cc1 (stereo not given)	-0.2	-17	nt	1.6	-1%	3	-9	2.7
CC(=O)Nc1cc2c(cc1NC(=O)Cn1nc(-c3ccccc3F)ccc1=O)OCCO2	0.2	3	nt	2.0	32%	4	3	3.2
C[C@H](CO)N1C[C@H](C)[C@@H](CN(C)S(=O)(=O)c2cccs2)Oc2c(NS(=O)(=O)c3ccc(F)cc3)cccc2C1=O	-1.0	nt	-2.3&-0.9	nt	-7%	nt	-5	-2.4
COc1ccc(-c2nn(CC(=O)N3CCCCC3)c(=O)c3ccccc23)cc1	-0.4	0	nt	0.4	-8%	-2	0	-2.4
O=C(NNC(=O)c1ccc(NC(=O)c2ccccc2)cc1)c1ccc(F)cc1	-0.1	10	-19	1.4	-6%	-10	0	0.5
CC(=O)Nc1ccc(-c2nn[nH]n2)cc1Cl	0.2	-20	nt	-3.5	-2%	6	0	0.5
Cc1ccc(NC(=S)N/N=C/c2c(Cl)cccc2Cl)c(C)c1	-0.2	-1	-5.8	1.0	-6%	30	41	4.7
CCOC(=O)N1CCN(C(=O)CN(Cc2ccccc2)S(=O)(=O)c2ccc(OC)c(C)c2)CC1	-0.1	7	nt	7.4	0%&-1%	1	-4	2.7
CCN1C(=O)N[C@@H](c2cccc(F)c2)C(C(C)=O)=C1C	0.0	-32	3.2	0.4	nt	17	-10	7.0
COc1ccc(CCNC(=O)Cn2c(=O)n(-c3cc(F)ccc3F)c(=O)c3sccc32)cc1OC	0.3	-1	2.2	3.2	-9%	2	3	-4.6
CCN(CC(=O)Nc1c(F)cccc1F)C(=O)CN(C)S(=O)(=O)c1ccc(F)cc1	0.8	-12	-1.3	1.8	nt	9	-1	-2.4
Cc1cc(C)n2nc(SCC#N)nc2n1	0.2	-3	0.9	-7.5	14%	-2	-1	-4.0
COc1cccc(CNC(=O)c2ccc(S(=O)(=O)N3CCCC3)cc2)c1	-0.8	-5	nt	?	-7%	-6	0	-3.9
CCCCCCC(=O)NC(Nc1ccc(S(N)(=O)=O)cc1)C(Cl)(Cl)Cl (stereo not given)	1.2	2	nt	2.2	18%	3	6	3.3
CC1CC2(CC(C)(C(=O)CSc3n[nH]c(-c4ccccc4Cl)n3)OC2=O)C(=O)O1 (stereo not given)	0.9	-10	nt	-5.3	?	-9	-4	2.4
CCCn1nnc(NC(=O)c2ccc(OC)cc2)n1	-0.3	8	nt	-4.2	-2%	-1	-2	-0.5
Cc1ccccc1N(CC(=O)N1CCN(c2ccccc2)CC1)S(C)(=O)=O	0.8	-4	nt	-1.8	1%	-4	-6	-0.6
O=C1CCC([N+](=O)[O-])C(c2ccccc2F)N1 (stereo not given)	-0.3	-6	-2.5	-1.4	-11%	-7	-3	7.5
O=C1CCN(CCCc2ccccc2)CCN1[C@H](CO)Cc1ccccc1	0.0	2	-2.0	?	nt	0	-3	1.9
Cc1ncc(CO)c2cc(C(=O)Nc3cccc(F)c3)c(=Nc3cccc(C(N)=O)c3)oc12	0.2	-8	-1.9	0.6	0%	-1	13	-0.6
Cc1nn(S(=O)(=O)N2CCOCC2)c(C)c1Br	-0.7	-4	-1.0	?	1%	9	-6	0.9
O=C(C1CCCO1)N1CCc2ccccc21 (stereo not given)	0.8	-13	nt	-0.6	27%	6	-5	-0.1
CC1CCC(C(=O)NC(C(=O)NCCN2CCC(C)CC2)C(C)C)CC1 (stereo not given)	nt	7	nt	1.5	3%&-2%	4	nt	nt
COc1cccc(NC(=O)CSc2nnc(-c3cccnc3)o2)c1	0.9	-15	-1.5	0.6	8%	?	nt	-5.7
CC(C)(C)NS(=O)(=O)c1ccc(NC(=O)C2CCCO2)cc1 (stereo not given)	-0.8	-1	-0.8	-4.2	nt	-14	-2	-1.6
COc1ccc(O)c(/C=C2/SC(=S)N(Cc3ccccc3)C2=O)c1	0.1	-6	0.0	4.2	nt	-3	-13	9.6
COc1cc(CN2CCN(CC3CC3)CC2CCO)cc(OC)c1 (stereo not given)	0.9	-2	-1.7	1.3	nt	-5	-2	-2.8
COc1cc(S(=O)(=O)Nc2c(C)nn(C)c2C)ccc1NC(C)=O	-0.3	-13	-12	2.0	11%	-2	1	2.8
COc1ccc(CC(=O)Nc2nc(-c3ccncc3)cs2)cc1	0.3	67*	-0.9	?	2%	2	-9	2.7
COc1ccc(C(=S)Nc2ccccc2)cc1	-0.7	-7	nt	-4.5	29%	0	1	6.2
O=C1CCc2cc(S(=O)(=O)NCCc3ccc(Cl)cc3)cc3c2N1CC3	nt	4	-0.1	-3.2	2%	-11	nt	nt
CCCCN(Cc1ccco1)C(=O)C1CCCN(c2ncnc3c2nc2n3CCCCC2)C1 (stereo not given)	1.5	21	-0.2	-1.4	nt	-6	7	0.1
CCOc1ccccc1C(=O)Nc1cc(C(=O)NCC(C)C)ccc1Cl	0.5	11	nt	3.6	nt	12	5	-6.4
CCN(CC)c1nc2ccccc2nc1C(C#N)C(=O)NCCCOC (stereo not given)	-0.6	nt	nt	nt	?	0	-2	-42
COc1cc(/C=C/C(=O)OCC(=O)c2c(N)n(C)c(=O)n(C)c2=O)ccc1OC(F)F	-0.1	19	-2.6	0.7	7%	-7	-11	-2.9
COc1ccc(S(=O)(=O)N(C)CC(=O)NCc2ccccn2)cc1	-1.2	-4	-2.4	5.9	nt	-5	1	1.3
Cc1cccc(NC(=S)N(CCN(C)C)Cc2cc3cccc(C)c3[nH]c2=O)c1	-1.1	-15	nt	0.6	nt	-6	1	1.1
Cc1ccc(N/C=C/C(=O)C(C)(C)C)c(O)c1	-1.3	nt	nt	?	16%	-25	-3	1.6
CCNc1ccc(C2(O)C(=O)c3ccccc3C2=O)cc1	0.3	-12	nt	-1.3	4%	8	-1	3.2
O=C(c1cccnc1)N1C2C=CC(C2)C1(C(F)(F)F)C(F)(F)F (stereo not given)	0.2	0	nt	-0.1	6%	-2	-5	4.1

(list continues)
Molecule	Bfl-1 A1 inh	T cruzi repl	MLL AF4-AF9 inh	RanGTP-Imp inh	Vif A3G	Calb FLC	Beta apoptosis	LANA-H2B inh
COCCNC(=O)CCCn1c(=O)c2cc(OC)c(OC)cc2n(CC(=O)c2cccc(OC)c2)c1=O	0.4	-6	7.9	-3.2	15%	18	-7	1.0
CC(=O)COc1ncn(-c2ccccc2)n1	-0.7	-6	nt	-0.9	-3%	-1	-5	-2.0
Cc1ccc(-n2c(C)cc(C)c(C#N)c2=O)cc1Cl	0.9	-3	nt	?	-2%	-3	-5	-1.4
Cc1cc(=O)[nH]c(-n2nc(C)cc2C)n1	0.4	-11	nt	-0.7	12%	-4	6	5.6
Cc1ccc(-n2nc(C)c3c2NC2=C(C(=O)CC(C)(C)C2)C3c2ccccc2OCC(=O)O)cc1 (stereo not given)	0.6	-75	2.1	7.8	10%	-6	-1	-2.7
COC(=O)C1CCN(C2=C(NS(=O)(=O)c3ccc(Cl)cc3)C(=O)c3ccccc3C2=O)CC1	-0.9	-7	39*	2.4	1%	7	6	-3.4
C=CCc1ccccc1OCC(O)CN1CCN(c2ccccc2F)CC1 (stereo not given)	0.6	6	nt	-0.3	4%	3	1	-3.1
Cc1ccc(C(C)C)c(OCC(=O)N2CCOCC2)c1	-0.1	5	nt	-3.2	9%	-4	-3	-1.4
Cc1ccc(C(=O)NNC(=O)c2ccc3ccccc3c2O)cc1	-2.0	-13	-8.5	-3.6	nt	32	61	-8.1
CS(=O)(=O)NCCNc1ccc(C(F)(F)F)cc1[N+](=O)[O-]	0.9	nt	0.8	-0.5	-8%	3	1	1.4
O=C(NCCc1ccccc1F)/C(=C/c1cccnc1)NC(=O)c1ccccc1	0.5	-9	-6.1	-2.8	-1%	-1	2	-0.3
Cc1cnc(C(=O)OCC(=O)c2cccc3ccccc23)cn1	-0.4	1	-5.2	1.4	8%	16	-11	nt

High-throughput results deposited in PubChem by several laboratories.
